Sfp inh – qHTS Assay for Inhibitors of Bacillus subtilis Sfp phosphopantetheinyl transferase (PPTase) | Potency, µM, for the others: max response, negative = inhibition, actives largely listed as inhibitors | 4'-phosphopantetheinyl transferase ffp (Bacillus subtilis), Q9F4F7 | Biochemical Sfp PPTase activity, qHTS | hit rate 3.5% among 310,000; active = well fitted inhibition curve with a large enough effect; inconclusive = small, poorly fitted or top-dose-only effect, or another doubt; inactive = no such curve, though single readings can be large or run the other way;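 note: the enzyme is Sfp with the accession as filed and its product quenches rhodamine fluorescence; potency is the fitted concentration of half-maximal effect; 0% = enzyme reaction without inhibitor and -100% = no enzyme wells; top concentration of the series not given in the record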
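After 15 min at room temperature with compound, 15 nM Sfp received 5 uM rhodamine-CoA plus 12.5 uM BHQ-2-ybbR (50 mM Hepes pH 7.6, 10 mM MgCl2). Rate came from the fluorescence difference over 30 min, ex 525/em 598 nm.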
D2 PAM – Beta-Arrestin HTS for Positive Allosteric Modulators of the Human D2 Dopamine Receptor: Potentiators. D(2) dopamine receptor (Homo sapiens), P14416. DiscoveRx D2 beta-arrestin cells, luminescence, 90 min; 100% = 57 uM dopamine signal. potentiation, % (test concentration not listed). hit rate 0.23% among 360,000. AID 624464, 2012; active = potentiation of 50% or more; inconclusive = 30% to 50%; inactive = 30% or less;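 note: compound concentration not given in the record; tested on top of an EC20 dose of dopamine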
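PathHunter D2 cells, attached overnight at 37 deg C, received compound in DMSO plus dopamine at EC20 (50 nM final) for 90 min at 37 deg C. Beta-arrestin recruitment was read as luminescence after 1 h with detection reagent at ambient temperature.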
PINK1 modulator – A Quantitative High throughput Screen to Identify Chemical Modulators of PINK1 Expression. Potency, µM (doses to about 76.6 µM), for inactives: at the highest dose activation (PINK1 increase), hits mostly activators. hit rate 0.2% among 410,000. PINK1 immunofluorescence, high-content cytometry, 24 h; active = well fitted activation curve with a large enough effect; inconclusive = small, poorly fitted or top-dose-only effect; inactive = flat fitted curve, though single readings scatter; cell line not stated here;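 note: potency is the fitted concentration of half-maximal effect; % of control where 0% means no effect; nearly all actives have a fitted effect of over 65% in size; a mitochondrial uncoupler was the plate control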
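Stable cell line treated 24 h with compounds at 5 concentrations (CCCP controls), then fixed and immunostained for PINK1 plus nuclear and cell stains; PINK1 immunofluorescence quantified by laser-scanning microplate cytometry.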
TRPV1 potentiator – HTS Assay for Compounds that Act as Potentiators of the Vanilloid Receptor 1; hit rate 0.02% among 320,000; Transient receptor potential cation channel subfamily V member 1 (Homo sapiens), Q8NER1; potentiation, % at 8.33 µM; TRPV1-expressing cells, Fluo-8 calcium influx, capsaicin EC20 potentiation; host cell line not named in the record; control for the full effect not named in the record; active means potentiation above 80%; inconclusive means 30% to 80%; inactive means below 30%; note: 0% is about no effect
Target sequence (Q8NER1 whole entry, looked up): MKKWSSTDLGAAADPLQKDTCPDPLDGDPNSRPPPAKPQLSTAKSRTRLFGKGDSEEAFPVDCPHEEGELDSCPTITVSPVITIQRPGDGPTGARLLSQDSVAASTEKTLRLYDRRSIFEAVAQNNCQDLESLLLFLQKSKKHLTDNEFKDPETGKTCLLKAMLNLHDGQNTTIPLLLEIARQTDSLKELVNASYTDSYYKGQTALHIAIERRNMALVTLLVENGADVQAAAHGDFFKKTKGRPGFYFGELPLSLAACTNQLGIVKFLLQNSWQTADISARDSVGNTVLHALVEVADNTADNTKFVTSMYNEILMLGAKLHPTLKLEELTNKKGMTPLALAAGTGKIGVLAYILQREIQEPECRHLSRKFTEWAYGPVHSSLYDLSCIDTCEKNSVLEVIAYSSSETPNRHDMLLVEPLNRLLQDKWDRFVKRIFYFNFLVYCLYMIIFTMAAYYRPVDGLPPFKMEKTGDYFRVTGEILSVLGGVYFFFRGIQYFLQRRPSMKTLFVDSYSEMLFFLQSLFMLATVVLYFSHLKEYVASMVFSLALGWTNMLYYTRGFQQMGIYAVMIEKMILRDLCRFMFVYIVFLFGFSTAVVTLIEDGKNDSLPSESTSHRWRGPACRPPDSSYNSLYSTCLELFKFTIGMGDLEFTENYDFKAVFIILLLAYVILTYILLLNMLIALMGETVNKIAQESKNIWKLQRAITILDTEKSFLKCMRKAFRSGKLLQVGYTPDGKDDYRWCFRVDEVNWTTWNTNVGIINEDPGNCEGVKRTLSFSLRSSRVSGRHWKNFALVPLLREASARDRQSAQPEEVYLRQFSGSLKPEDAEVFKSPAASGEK
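Cells expressing TRPV1 were dye-loaded with Fluo-8 and read kinetically: 10 s baseline, 3 min after compound (agonist portion), then 2 min after EC20 capsaicin (allosteric enhancer portion). Calcium-bound dye fluorescence at 480/520 nm.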
Six1-Eya2 inh – qHTS Assay for Inhibitors of the Six1/Eya2 Interaction; hit rate 0.56% among 360,000; AID 651725, 2012; AlphaScreen GST-Six1/His-Eya2 binding, biochemical; hits give low values; control for the full effect not named in the record; activity change, % (no concentration beside the values); Homeobox protein SIX1 (Homo sapiens) + Protein phosphatase EYA2 (Homo sapiens), …; in the data active = activity change below about -65%; inconclusive = about -30% to -65%; inactive = above about -30%; note: % is set by controls: 0 for no effect and ±100 for the full control effect; compound concentration not given in the record
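AlphaScreen with GST-Six1 and His-Eya2 (5X mix: 250 nM and 500 nM), glutathione donor and nickel acceptor beads; buffer 50 mM Tris pH 8.0, 300 mM NaCl, 1 mM TCEP; 1 h at 37 C in the dark.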
D2 agonist – Beta-Arrestin HTS for Positive Allosteric Modulators of the Human D2 Dopamine Receptor: Agonists | D(2) dopamine receptor (Homo sapiens), P14416 | DiscoveRx PathHunter D2 beta-arrestin, luminescence, 90 min; 100% = 57 uM dopamine signal | activation, % (concentration not given with the values) | hit rate 0.084% among 360,000; in the data active = activation above about 40%; inconclusive = about 15% to 40%; inactive = below about 15%; note: compound concentration not given in the record; the text of the record calls up to 30% inactive
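DiscoveRx PathHunter D2 beta-arrestin cells (2,100/well) attached overnight, then compound-stimulated 90 min at 37 C in HBSS/10 mM HEPES/0.1% Tween-20 buffer; beta-galactosidase complementation read by luminescence after 1 h at ambient temperature. Dopamine 57 uM final (EC100) as control.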
CtBP-E1A inh – qHTS Assay for Inhibitors of the CtBP/E1A Interaction. CtBP / adenovirus E1A interaction (AlphaScreen). AlphaScreen GST-E1A/His-CtBP binding, 1536-well; hits give low values; control for the full effect not named in the record. activity change, % (test concentration not listed). hit rate 0.49% among 340,000; in the data active means activity change below about -65%; inconclusive means about -30% to -65%; inactive means above about -30%; note: % is set by controls: 0 for no effect and ±100 for the full control effect; compound concentration not given in the record
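GST-E1A and His-tagged CtBP (125 nM each as 5X stock) were preincubated with pin-transferred compound for 2 h at 37 °C in the dark, then glutathione donor and nickel acceptor beads were added for 1 h before AlphaScreen reading.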
Active calls of the source: *; ? = inconclusive; nt = no result given; [ ] = another dose, or the depositor's remark.

SMILES	Sfp inh	D2 PAM	PINK1 modulator	TRPV1 potentiator	Six1-Eya2 inh	D2 agonist	CtBP-E1A inh
CC1(C)CC(=O)C=C(NNC(=O)c2ccc(N)cc2)C1	-8%	17	0.0%	17	-3	1.8	5
CN(C(=O)C1CCCN1S(=O)(=O)c1ccc(Cl)cc1)c1ccccc1 (stereo not given)	nt	-5	0.7%	0	-2	-7.7	13
CC1CCCC(NC(=O)COC(=O)[C@@H](NC(=O)c2ccc(F)cc2)C(C)C)C1C (stereo not given in full)	nt	5	0.1%	nt	-5	-1.7	-5
O=C(Nc1cc([N+](=O)[O-])ccc1F)c1ccc2ccccc2c1	14%	-3	12%	16	3	5.3	-5
Cc1ccnc(NC(=O)CCC(=O)N(CC(=O)NCc2ccc(F)cc2)c2ccc(F)cc2)c1	21%	-6	0.1%	10	-6	-1.5	-8
CCOC(=O)Cc1csc(NC(NC(=O)OCC)(C(=O)OCC)C(F)(F)F)n1 (stereo not given)	nt	0	7.3%	nt	7	0.1	-9
O=C(Cc1ccccc1)Nc1c(Cl)ccc2nsnc12	11%	-3	0.8%	-19	-1	-0.5	2
COc1ccc(Cl)cc1NC(=O)CN(C)CC(=O)N(CC(C)C)c1c(N)n(CC(C)C)c(=O)[nH]c1=O	nt	-8	1.0%	nt	3	-1.5	nt
CCCOc1ccc(N2C(=O)C3ON(c4ccccc4)C(c4ccc(O)c(OC)c4)C3C2=O)cc1 (stereo not given)	14%	9	-1.6%	-5	1	?	-1
COC(=O)c1ccc(C(=O)Nc2nc3cc(N)c(C)cc3s2)cc1	2%	4	-0.6%	3	-4	-1.2	-4
Cc1sc(NC(=O)/C=C/C(=O)O)c(C(N)=O)c1-c1ccc(C(C)(C)C)cc1	-55%	-14	1.8%	4	7	-2.8	3
COC(=O)c1ccc(OC(=O)c2ccc(OC)cc2)c(OC)c1	-17%	-7	-1.8%	22	1	-2.3	nt
Cc1ccc(NC(=O)CSc2n[nH]c(-c3ccco3)n2)cc1	-3%	-6	-0.9%	-5	2	-3.4	-4
O=C1/C(=C/c2ccc(S(=O)(=O)O)cc2S(=O)(=O)O)CCc2ccccc21	nt	nt	-0.2%	nt	2	nt	4
O=[N+]([O-])c1ccc(N2CCN(CCO)CC2)cc1Sc1ccccn1	18%	-9	-1.4%	5	1	-4.7	-9
C=CCOC(=O)C1=C(C)NC(C)=C(C(=O)OCC=C)C1c1cn(-c2ccccc2)nc1-c1ccco1	4%	-5	12%	6	0	-0.3	nt
Cc1csc2nc(O)c(C(=O)NCCCc3ccccc3)c(=O)n12	nt	-14	-1.5%	8	1	-2.9	-1
CC(C(=O)N1CCCc2ccccc21)N1C(=O)c2ccccc2C1=O (stereo not given)	2%	-19	-1.0%	3	-4	-1.8	4
CCOC(=O)c1cc(C(=O)Nc2ccccc2F)nn1C	2%	-6	-0.2%[38.3 µM]	-10	7	-2.5	7
O=C(NCCCN1CCCC1=O)c1cccs1	-6%	-5	2.3%	-4	-1	-1.8	-11
Cc1c(Cl)ccc2sc(NC(=O)CN3C(=O)c4ccccc4C3=O)nc12	13%	0	1.8%	-11	4	5.3	-1
O=C(COC(=O)c1cc(=O)[nH]c2ccc(Br)cc12)c1ccccc1	13%	-5	-3.9%	13	12	4.3	3
O=C1CCCN1c1ccc(S(=O)(=O)N2CCCCC2)cc1	14%	-5	0.5%	-3	0	2.3	4
Cc1ccc(C)c(NC(=S)N2CCN(c3cccc(C(F)(F)F)c3)CC2)c1	22%	-20	3.0%	-1	-4	-4.5	1
COc1ccc(-n2cc(CNC3CCN(C)CC3)c(-c3cccc(F)c3)n2)cc1	-8%	-3	-1.5%	-2	-5	-4.0	-2

Ordered by count of non-hydrogen atoms (descending): 6 of the compounds above.
SMILES	Sfp inh	D2 PAM	PINK1 modulator	TRPV1 potentiator	Six1-Eya2 inh	D2 agonist	CtBP-E1A inh
C=CCOC(=O)C1=C(C)NC(C)=C(C(=O)OCC=C)C1c1cn(-c2ccccc2)nc1-c1ccco1	4%	-5	12%	6	0	-0.3	nt
CCCOc1ccc(N2C(=O)C3ON(c4ccccc4)C(c4ccc(O)c(OC)c4)C3C2=O)cc1 (stereo not given)	14%	9	-1.6%	-5	1	?	-1
COc1ccc(-n2cc(CNC3CCN(C)CC3)c(-c3cccc(F)c3)n2)cc1	-8%	-3	-1.5%	-2	-5	-4.0	-2
O=C1/C(=C/c2ccc(S(=O)(=O)O)cc2S(=O)(=O)O)CCc2ccccc21	nt	nt	-0.2%	nt	2	nt	4
COC(=O)c1ccc(C(=O)Nc2nc3cc(N)c(C)cc3s2)cc1	2%	4	-0.6%	3	-4	-1.2	-4
CCOC(=O)c1cc(C(=O)Nc2ccccc2F)nn1C	2%	-6	-0.2%[38.3 µM]	-10	7	-2.5	7

Quoted from the listing.
For D2 PAM, CCOC(=O)Cc1csc(NC(NC(=O)OCC)(C(=O)OCC)C(F)(F)F)n1 (stereo not given) shows 0
For TRPV1 potentiator, O=[N+]([O-])c1ccc(N2CCN(CCO)CC2)cc1Sc1ccccn1 shows 5
For D2 agonist, CC1CCCC(NC(=O)COC(=O)[C@@H](NC(=O)c2ccc(F)cc2)C(C)C)C1C (stereo not given in full) shows -1.7
For TRPV1 potentiator, Cc1c(Cl)ccc2sc(NC(=O)CN3C(=O)c4ccccc4C3=O)nc12 shows -11

Further compounds.
SMILES	Sfp inh	D2 PAM	PINK1 modulator	TRPV1 potentiator	Six1-Eya2 inh	D2 agonist	CtBP-E1A inh
Cc1ccc(S(=O)(=O)/N=C(\CSC(N)=O)Nc2ccccc2)cc1	14%	16	-1.3%	0	2	-2.3	1
CC(=O)N(C)c1ccc(NC(=S)Nc2cccc3ccccc23)cc1	-12%	-10	-1.4%	0	-8	-0.5	-12
O=C(Nc1ccn([C@H]2CC[C@@H](CO)O2)c(=O)n1)c1ccccc1	12%	-5	2.1%	-13	-6	-1.9	15
Cc1sc2ncn(CC(=O)N(CC(=O)NC3CCCC3)Cc3cccs3)c(=O)c2c1C	-12%	-1	20%[38.3 µM]	-7	-1	-1.3	2
COC(=O)COc1ccc(S(=O)(=O)Nc2ccc3c(c2)OCCO3)cc1Cl	5%	-1	4.4%[38.3 µM]	19	3	-0.6	6
COC(=O)c1ccccc1S(=O)(=O)NNC(=O)C1COc2ccccc2O1 (stereo not given)	nt	-14	-2.3%	1	0	1.0	-15
CCOC(=O)c1nn(C)c(=S)n(C)c1=O	nt	-8	1.2%	nt	7	-0.3	15
Fc1ccccc1OCCSc1ncnc2nc[nH]c12	0%	-7	2.2%	-7	4	-2.7	nt
Cc1c(Cl)cc(-n2cnnn2)cc1[N+](=O)[O-]	16%	0	-1.9%	-7	2	0.9	nt
CCOc1cccc2sc(N(CCCN(C)C)C(=O)c3ccc(S(=O)(=O)N(C)Cc4ccccc4)cc3)nc12	56µM*	-26	-1.5%	-14	-18	?	?
CC(=O)/C(N=Nc1ccc2c(c1)OCO2)=C(\C)O	-21%	-17	0.3%	-29	-19	-1.5	-7
CCOC(=O)CCCN1CC(O)=C(c2nc3ccccc3s2)C1=N	24%	-6	4.9%	-6	-4	-2.0	10
CN(CCC#N)c1ncnc2scc(-c3ccccc3)c12	-8%	-7	2.2%	19	5	0.4	2
CC(C)CN(C(=O)COC(=O)COc1ccc2ccccc2c1)c1c(N)n(Cc2ccccc2)c(=O)[nH]c1=O	nt	-2	-1.3%	-13	2	0.8	11
COc1ccnc(CS(=O)c2nc3cc(C(O)(F)F)ccc3[nH]2)c1OC (stereo not given)	-6%	-12	1.3%	3	-7	-2.5	-2
CCOc1cc(C(=S)N2CCOCC2)ccc1OC(=O)c1ccc(C)cc1	-9%	-6	12%	1	?	-1.0	-28
Clc1ccc2c(NCc3ccccc3)ccnc2c1	3%	-12	14%	8	0	2.9	-3
Cc1cccc2nc(CNc3ccc(F)cc3)cn12	6%	-22	-0.7%	-5	-5	-2.7	-9
C#CCSc1n[nH]c(=O)n1-c1cccc(C(F)(F)F)c1	7%	-3	3.3%	-5	0	-0.5	-2
O=C(CCCN1C(=O)c2cccc3cccc(c23)C1=O)N1CCc2ccccc2C1	-6%	-16	-0.5%	11	-8	-2.8	-16
CC(=O)N/C(=C/c1ccc2c(c1)OCO2)C(=O)NCCO	-6%	9	-1.4%	7	16	-6.1	0
CC1(C)NC(=O)N(CC(O)COC2CCCCC2)C1=O (stereo not given)	15%	-2	0.9%	-37	7	-0.7	0
COc1cccc(NC(=O)C2CCCN(S(=O)(=O)c3ccc(-n4cnnn4)cc3)C2)c1 (stereo not given)	20%	7	0.4%	-7	-11	0.3	-5
O=C(COc1ncnc2ccccc12)NC(=O)NCc1ccccc1	16%	-10	18%[38.3 µM]	-3	7	-3.0	0
COc1ccc(-n2c(SC)nc3sc4c(c3c2=O)CCN(C)C4)cc1	-6%	-2	2.2%	9	-12	-0.3	-25
COc1ccc(C2c3sc(=O)[nH]c3SC3C4CCC(C4)C23)cc1OC (stereo not given)	2%	10	6.5%	17	-17	-2.1	0
CCCn1c(/C=N/Nc2nc3ccccc3[nH]2)nc2ccccc21	?	-35	12%	2	-10	-8.0	-18
CSCCC(NC(=O)c1ccccc1Br)C(=O)NNC(=O)c1cc(C)oc1C (stereo not given)	nt	-2	3.7%	nt	0	-3.3	2

As a working copy, two of the compounds above.
SMILES	Sfp inh	D2 PAM	PINK1 modulator	TRPV1 potentiator	Six1-Eya2 inh	D2 agonist	CtBP-E1A inh
Cc1cccc2nc(CNc3ccc(F)cc3)cn12	6%	-22	-0.7%	-5	-5	-2.7	-9
C#CCSc1n[nH]c(=O)n1-c1cccc(C(F)(F)F)c1	7%	-3	3.3%	-5	0	-0.5	-2

Screening data: PubChem, National Center for Advancing Translational Sciences (NCATS)
